Screening data (PubChem BioAssay)
TSHR agonist: qHTS Assay for Agonists of the Thyroid Stimulating Hormone Receptor. actives 0.48% (n = 73,000). Thyrotropin receptor (Homo sapiens), P16473. HEK293-CNG-TSHR cells (CNG channel as cAMP sensor), membrane potential dye, cAMP. Potency, µM (top dose mostly 57.1 µM), without a hit: top-dose activation, most hits filed as activators; active = well fitted activation curve of enough size with the parental cells flat; inconclusive = any curve in the parental cells; inactive = parental cells flat and receptor cells flat or falling; also: potency is read from the fitted curve at half-maximal effect; % of control where 0% means no effect; weak receptor curves with flat parental cells got no call and are not listed
Target sequence (P16473 whole entry, looked up): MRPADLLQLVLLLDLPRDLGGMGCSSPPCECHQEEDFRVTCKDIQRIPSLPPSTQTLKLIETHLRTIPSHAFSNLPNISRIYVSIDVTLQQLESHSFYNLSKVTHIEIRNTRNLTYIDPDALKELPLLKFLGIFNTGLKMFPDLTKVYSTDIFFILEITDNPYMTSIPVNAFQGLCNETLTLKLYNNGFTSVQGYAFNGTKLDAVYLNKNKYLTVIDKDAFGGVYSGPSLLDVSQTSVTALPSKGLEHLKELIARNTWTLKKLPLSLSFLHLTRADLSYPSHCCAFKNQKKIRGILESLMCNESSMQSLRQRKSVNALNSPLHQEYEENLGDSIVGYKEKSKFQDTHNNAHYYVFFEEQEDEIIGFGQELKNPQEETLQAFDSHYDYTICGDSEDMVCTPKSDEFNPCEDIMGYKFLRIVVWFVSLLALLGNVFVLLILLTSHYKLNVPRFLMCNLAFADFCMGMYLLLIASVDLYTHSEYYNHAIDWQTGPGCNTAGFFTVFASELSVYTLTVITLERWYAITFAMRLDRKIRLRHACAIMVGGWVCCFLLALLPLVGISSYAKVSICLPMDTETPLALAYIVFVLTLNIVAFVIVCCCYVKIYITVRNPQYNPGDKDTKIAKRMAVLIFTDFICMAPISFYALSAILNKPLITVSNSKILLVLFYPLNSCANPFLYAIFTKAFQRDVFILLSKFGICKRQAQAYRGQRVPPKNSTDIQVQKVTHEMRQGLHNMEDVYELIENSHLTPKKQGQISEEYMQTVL
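HEK 293 cells stably expressing TSHR and a modified CNG channel, with CNG-only parental cells as counterscreen, were preloaded 60 min at room temperature with membrane potential dye containing 100 uM RO 20-1724. Compound exposure was 30 min, and depolarization was read as fluorescence at 590 nm.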
AID923: qHTS Assay for Allosteric/Competitive Inhibitors of Caspase-1: Spectroscopic Profiling in AFC Spectral Region; compound fluorescence, AFC spectral region (405/520 nm); almost no hit is shown here; Potency, µM (titrated, usually from 57.5 µM), inactives show at the highest dose fluorescence increase, usual class: activators; actives 1.1% (n = 75,000); AID 923, 2007; active = well fitted activation curve with a large enough effect; inconclusive = small, poorly fitted or top-dose-only effect;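 also: potency is read from the fitted curve at half-maximal effect; 0% is about no effect; scaled to a free AFC standard on each plate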
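Compound autofluorescence profiled at 405 nm ex/520 nm em during kinetic caspase 1 run (50 nM enzyme, 5 uM Ac-WEHD-AFC, HEPES pH 7.5, 10 mM DTT). Titration up to 57 uM; baseline from regression intercept, normalized to AFC standard curve.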
A647 autofl: qHTS Assay for Spectroscopic Profiling in A647 Spectral Region. Compound fluorescence, A647 channel (570/671 nm), Tris buffer. max dye-equivalent concentration, M. 59,000 tested, under 10 active. AID 592, 2007; active means above 1 µM dye equivalent; inconclusive means 0.1 to 1 µM; inactive means 0.1 µM or less;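 also: values scaled relative to a standard on each plate; highest value over a series up to 38 µM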
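Compounds pinned into 100 mM Tris pH 8.0, 15 min at room temperature, then read with 570 nm excitation/671 nm emission filters. Fluorescence normalized to an on-plate six-point Alexa 647 standard curve, giving dye-equivalent concentration per compound concentration.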
Resorufin fluor: qHTS Assay for Spectroscopic Profiling in Resorufin Spectral Region; Compound fluorescence, resorufin region 547/598 nm, buffer; active compounds read high; max dye-equivalent concentration, M; actives 0.04% (n = 59,000); active = above 10 nM dye equivalent; inconclusive = 1 to 10 nM; inactive = 1 nM or less; a few of its hits are not listed in these tables; also: highest value over a series up to 38 µM
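Read-out: intrinsic compound fluorescence at ex 547/em 598 nm after 15 min at RT in pH 8.0 Tris (100 mM). Values expressed as resorufin-equivalent concentration from per-plate standard series.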
A488 autofl: qHTS Assay for Spectroscopic Profiling in A488 Spectral Region; actives 0.1% (n = 59,000); AID 591, 2007; max dye equivalency, M; compound autofluorescence, A488 spectral region, dye equivalency; active compounds read high; active = above 10 nM dye equivalent; inconclusive = 1 to 10 nM; inactive = 1 nM or less; about half of its hits are not listed in these tables;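 also: highest value over a series up to 38 µM; compound alone in buffer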
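Compound autofluorescence was read in 100 mM Tris pH 8.0 after 15 min at room temperature, ex 480 nm/em 540 nm. Intensities were converted to A488 dye-equivalent concentration using an on-plate six-point A488 standard curve.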
An asterisk follows results filed as active; i = inactive; ? = inconclusive; nt = not tested or not shown; & = joins results of further samples; [ ] = another dose, or the depositor's remark. A portion of the library (hit frequency here may not be typical).

Every second line gives: TSHR agonist	AID923	A647 autofl	Resorufin fluor	A488 autofl
> Cc1ccc(O)c(CN2CCN(c3ccccc3)CC2)c1
  8%	1.7%	1e-09	i	i
> NC(=O)OCCSc1nnc(-c2cccc(C(N)=S)c2)o1
  -5%	2.3%	1.1e-08	i	i
> COc1ccc(NC(=O)N2CCCC3(CCN(C(=O)Oc4ccccc4)CC3)C2)cc1
  -6%	3.0%	1.9e-08	i	i
> CN1CC[C@@]2(c3cccc(O)c3)Cc3nc4ccccc4cc3C[C@H]2C1
  20%	-1.4%	nt	nt	nt
> CN1[C@H]2CC(=O)C[C@@H]1[C@@H](O)C2
  4%[25.6 µM]	-5.3%[25.7 µM]	1e-09	i	i
> CC(C)c1ccc2c(c1)CC[C@H]1[C@@](C)(CN)CCC[C@@]21C
  -2%[11.4 µM]	-1.9%[11.5 µM]	1.3e-08	i	i
> O=C(c1ccco1)N1CCC[C@@]2(CCN(Cc3ccncc3)C2)C1
  3%	1.9%	1e-09	i	i
> Cn1c(=O)oc2cc(S(=O)(=O)N3CCCC(C(=O)NCc4ccc5c(c4)OCO5)C3)ccc21 (stereo not drawn)
  ?	3.4%	nt	nt	nt
> Fc1ccc(C(OCCN2CCN(CCCc3ccccc3)CC2)c2ccc(F)cc2)cc1
  ?	-0.2%	1.4e-08&2.9e-09	i	i
> CC(C)(Cl)Cl
  -5%	3.0%	nt	nt	nt
> CCN(CC)S(=O)(=O)c1ccc(N=Cc2c(O)n(-c3ccccc3)c(=O)[nH]c2=O)cc1
  ?	-0.5%	nt	nt	nt
> O=C(Oc1ccccc1)N1CCC[C@@]2(CCN(Cc3ccccc3)C2)C1
  4%	3.0%	1.9e-09	i	i
> C/C=C/c1ccc2c(c1)OCO2
  7%	-3.0%	nt	nt	nt
> C[C@@H]1O[C@H](C[N+](C)(C)C)CS1
  ?	1.0%	2.5e-09	i	i
> CCCCCn1c(=O)c(C(=O)Nc2ccncc2)c(O)c2ccccc21
  5%	0.5%	nt	nt	nt

Rewritten as labelled records: part of the list above
Cc1ccc(O)c(CN2CCN(c3ccccc3)CC2)c1
  TSHR agonist: 8%
  AID923: 1.7%
  A647 autofl: 1e-09
  Resorufin fluor: i
  A488 autofl: i

NC(=O)OCCSc1nnc(-c2cccc(C(N)=S)c2)o1
  TSHR agonist: -5%
  AID923: 2.3%
  A647 autofl: 1.1e-08
  Resorufin fluor: i
  A488 autofl: i

COc1ccc(NC(=O)N2CCCC3(CCN(C(=O)Oc4ccccc4)CC3)C2)cc1
  TSHR agonist: -6%
  AID923: 3.0%
  A647 autofl: 1.9e-08
  Resorufin fluor: i
  A488 autofl: i

Additional structures follow:
Every second line gives: TSHR agonist	AID923	A647 autofl	Resorufin fluor	A488 autofl
> CC[C@H](Oc1ccc(Cl)cc1)C(=O)OC1C[C@H]2CC[C@@H](C1)N2C (stereo partly drawn)
  ?	0.4%	nt	nt	nt
> COc1ccc(CC2C(=O)NC(=O)NC2=O)c(OC)c1
  5%	0.5%	1.6e-09	i	i
> O=C(c1ccc2c(c1)ncn2C1CCCCCC1)N1CCC2(CC1)OCCO2
  8%	-0.4%	1.4e-08	i	i
> Cn1c(O)c(C=NC2CC3CCC2(C)C3(C)C)c(=O)[nH]c1=O (stereo not drawn)
  10%	-0.9%	1.8e-08	i	i
> CC(=O)OC1=CC2=CC[C@H]3[C@H]4CCC(=O)[C@@]4(C)CC(=O)[C@]3(S)[C@]2(C)CC1
  -1%[11.4 µM]	-0.2%[11.5 µM]	1e-09	i	i
> CC(C)CN1CC2(CCN(C(=O)Oc3ccccc3)CC2)C1
  ?	2.6%	4.3e-09	i	i
> Cc1c(OCC(F)(F)F)ccnc1CS(=O)c1nc2ccccc2[nH]1 (stereo not drawn)
  ?	-3.4%	3e-09&2.7e-09&4.7e-08	i	i
> CCCNS(=O)(=O)c1ccc(OCC(=O)N2CCN(Cc3ccccc3)CC2)cc1
  -7%	1.8%	1e-09	i	i
> COc1cc(-c2ccc(N)c(OC)c2)ccc1N
  ?	-0.2%	nt	nt	nt
> NC[C@H](CP(=O)(O)O)c1ccc(Cl)cc1
  2%&8%	-3.1%	1e-09	i	i
> Cc1cc(C)n2c(Br)c(CN3CC4CC(C3)c3cccc(=O)n3C4)nc2n1 (stereo not drawn)
  0%	0.5%	nt	nt	nt
> O=C(O)C[C@H]1NCc2cc3ccccc3nc21
  -3%[11.4 µM]	2.2%[11.5 µM]	4.5e-09	i	i
> CC(=NCCN1CCOCC1)c1c(O)n(-c2ccccc2C)c(=O)[nH]c1=O
  nt	2.8%	2.6e-08	i	i
> CC1CCC(NCCc2ccc3c(c2)OCO3)CC1 (stereo not drawn)
  ?	-1.3%	2.7e-08	i	i
> CC(C)(C)C(O)(CCc1ccc(Cl)cc1)Cn1cncn1 (stereo not drawn)
  2%	-0.2%	nt	nt	nt

Following part
molecule	TSHR agonist	AID923	A647 autofl	Resorufin fluor	A488 autofl
CCCCC	?	-1.1%	nt	nt	nt
COc1ccc(C2C(C(=O)N3CCC4(CC3)OCCO4)CC(=O)N2c2ccc(OC)cc2)cc1 (stereo not drawn)	-6%[11.4 µM]	0.7%	2.3e-08	i	i
O=C(Nc1ccccc1)N1CC[C@@]2(CCCNC2)C1	1%	11%	4e-09	i	i
O=C(O)CP(=O)(O)c1ccc(Cl)cc1	-2%	3.5%	nt	nt	nt
C=CCOC(=O)C1=C(C)OC(N)=C(C#N)C12C(=O)N(CN1CCOCC1)c1ccccc12 (stereo not drawn)	nt	nt	9e-08	i	i
CCN(CC)Cc1c[nH]c2ccccc12	-13%	3.8%	nt	nt	nt
COc1cc(OC)c(OC)cc1CNCCc1ccc(OC)c(OC)c1	-1%	0.6%	1.4e-08	i	i
C[C@@]12CC[C@H]3[C@@H](CC[C@]4(O)C[C@H](O)CC[C@@]34C=O)[C@]1(O)CC[C@@H]2C1=CC(=O)OC1	nt	-1.9%[25.7 µM]	5e-08	i	i
CC(C)CC(N(C)C)C1(c2ccc(Cl)cc2)CCC1 (stereo not drawn)	?	1.7%&1.0%	nt	nt	nt
CCCCn1c(=O)c(C(=O)Nc2cnccn2)c(O)c2ccccc21	20%	1.0%	1.5e-08	i	i
C=CCCl	4%	0.0%	nt	nt	nt
N[C@@H](Cc1c[nH]c2ccccc12)c1nnc(SCc2ccccc2)o1	7%	0.4%	2e-08	i	i
Cc1c(C(=O)c2cccc3ccccc23)c2cccc3c2n1[C@H](CN1CCOCC1)CO3	nt	-1.7%	4.5e-08	i	i
CC(C)CC12CN3CCN(CC(C3)C1O)C2 (stereo not drawn)	2%	2.5%	nt	nt	nt
OC1(c2ccc(F)cc2)CC2CCC(C1)N2Cc1nnnn1C1CCCC1 (stereo not drawn)	13%	1.1%	4.3e-08	i	i
CCCc1cc2c(n1Cc1ccco1)C(C)C1CN(C(=O)c3ccccc3)C(C)(C(=O)OC)C21 (stereo not drawn)	4%	8.5%	nt	nt	nt
O=C1CCCC2=C1C(c1cccnc1)Nc1ccccc1N2 (stereo not drawn)	-2%	1.3%	nt	nt	nt
C=CC(=C)C	?	4.3%	nt	nt	nt
O=C1C=C2C=C[C@H]3C[C@@]2(O1)[C@H]1CCCCN31	21%	-2.0%[25.7 µM]	1e-09&2.2e-09	i	i
C[C@@H]1OC=C2[C@@H](O)[C@H]3O[C@H]3C(=O)[C@@]23[C@H]1[C@H]1C2=C([C@@H](O)[C@H]4O[C@@H]4C2=O)[C@@H]3O[C@@H]1C	-2%[11.4 µM]	-0.1%[11.5 µM]	nt	nt	nt
CCOC(=O)c1c(C)n(Cc2ccco2)c2ccc(OC)cc12	?	2.6%	nt	nt	nt
CN(C)CCc1nc2ccccc2c(=O)n1-c1ccccc1	1%[11.4 µM]	-0.5%	2.7e-08	i	i
N[C@H](CCCCCP(=O)(O)O)C(=O)O	?	-3.2%&4.1%	1.6e-08&4.6e-08	i	i
CN1CCN(c2nc3ccccc3c(=O)n2-c2ccccc2)CC1	5%	-1.4%	nt	nt	nt
Cc1cccc([C@H](C)c2cnc[nH]2)c1C	?	-4.1%	nt	nt	nt
Cc1nn(-c2ccccc2)c2c1CC1(C(=O)N(C)C(=O)N(C)C1=O)C1CCCCN21 (stereo not drawn)	0%	-1.7%	5.2e-09	i	i
CC1=CC(C)C(COC(N)=O)(COC(N)=O)C(C)C1 (stereo not drawn)	4%	1.2%	1.8e-09	i	i
COc1cc2c3c(c1OC)-c1cc(O)ccc1CC3NCC2 (stereo not drawn)	9%	8.5%	2e-08	i	i
CC(=NCc1ccc(F)cc1)c1c(O)n(C)c(=O)n(C)c1=O	12%	0.9%	8.5e-09	i	i
C[N+](C)(C)CC#CCN1CCCC1=O	?	0.5%&-4.7%	5.9e-09	i	i
Cc1ccc(Cn2nnnc2CN2CCC(n3nnc4ccccc43)CC2)cc1	10%	0.0%	2.1e-09	i	i
COc1ccc2c(c1)CC1(CN2C)C(=O)NC(=O)N(c2ccc(F)cc2)C1=O (stereo not drawn)	9%	1.7%	3.9e-08	i	i
FC(F)(F)c1ccc2c(c1)ncn2C1CCN(Cc2nnnn2C2CCCCC2)CC1	-5%	-1.8%	3.5e-08	i	i
O=C(c1cc(Br)ccc1Cl)N1CCC2(CC1)OCCO2	3%	0.9%	1e-09	i	i
COc1ccc(C(CC(=O)N2CCC3(CC2)OCCO3)NS(=O)(=O)c2ccc(OC)cc2)cc1 (stereo not drawn)	3%	0.2%	2.2e-08	i	i
Cc1cc(C)c(C2=NOC(O)(C(F)(F)F)C2)c(=O)[nH]1 (stereo not drawn)	-1%[11.4 µM]	0.1%	3.9e-08	i	i
O=C1NC(=O)C(CCc2ccncc2)(c2ccccc2)C(=O)N1	-1%	-0.3%	1e-09	i	i
CN(C)c1ccc2c(c1)N=C(c1ccco1)OP2(=S)N1CCOCC1 (stereo not drawn)	16µM*	0.4%	1.5e-08	i	i
O=P(O)(O)C#Cc1ccccc1	1%	0.9%	nt	nt	nt
COc1ccccc1-n1c(O)c(C=Nc2c(C)n(C)n(-c3ccccc3)c2=O)c(=O)[nH]c1=O	-4%	2.0%	1e-09	i	i
CC(C)[C@@H]1CN[C@H](C(=O)O)[C@@H]1CC(=O)O	4%	-1.7%	nt	nt	nt
O=C(CCCN1CCC2(CC1)C(=O)N(Cc1cccc(F)c1)CN2c1ccccc1)c1ccc(F)cc1	?	-0.8%	nt	nt	nt
O=c1[nH]c(=O)n(CCC2=CCCCC2)c(O)c1C=NCc1cccnc1	-6%	-3.5%	1.1e-08	i	i
CCCCCCn1c(=O)c(C(=O)Nc2ccncc2)c(O)c2ccccc21	13%	1.1%	nt	nt	nt
COc1ccc(C(=O)OC2C[C@H]3CC[C@@H](C2)N3C)cc1OC (stereo partly drawn)	-10%[25.6 µM]	0.1%[25.7 µM]	1e-09	i	i
CCOC(=O)C1=C(C)OC(N)=C(C#N)C12C(=O)Nc1ccc(C)cc12 (stereo not drawn)	1%	0.8%	3.3e-09	i	i
CCCCN1CCC(C#N)(Nc2ccccc2)CC1	6%	-1.4%	4.1e-09	i	i
